Compound activity from PubChem BioAssay.
2A StopGo – High Throughput Screening for Foot and Mouth Disease Virus Antivirals. Potency, µM (doses to about 57.9 µM), without a hit: at the top dose signal change, negative = less light. actives 1.2% (n = 410,000). human cells with a luciferase reporter of 2A StopGo recoding; control for the full effect not named in the record. AID 1159524, 2015; active = well fitted falling curve with a large enough effect; inconclusive = small, poorly fitted or top-dose-only effect; inactive = no such curve, though single readings can be large or run the other way; tested in HEK293T cells; note: % is set by controls: 0 for no effect and ±100 for the full control effect; nearly all actives have a fitted effect of over 45% in size; luciferase light after 4 h
Cruzain inh Det – qHTS Assay for Promiscuous and Specific Inhibitors of Cruzain (with detergent); actives 0.43% (n = 200,000); AID 1478, 2009; purified cruzain, Z-FR-AMC fluorescence, 0.01% Triton; Potency, µM, without a hit: max response, negative = inhibition, actives largely listed as inhibitors; Cruzipain (Trypanosoma cruzi), P25779;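 note: plate controls were neutral wells for no effect and buffer without enzyme for full effect; nearly all actives have a fitted effect of over 40% in size; top concentration of the series not given in the record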
Target sequence (P25779 123-467 limits assumed): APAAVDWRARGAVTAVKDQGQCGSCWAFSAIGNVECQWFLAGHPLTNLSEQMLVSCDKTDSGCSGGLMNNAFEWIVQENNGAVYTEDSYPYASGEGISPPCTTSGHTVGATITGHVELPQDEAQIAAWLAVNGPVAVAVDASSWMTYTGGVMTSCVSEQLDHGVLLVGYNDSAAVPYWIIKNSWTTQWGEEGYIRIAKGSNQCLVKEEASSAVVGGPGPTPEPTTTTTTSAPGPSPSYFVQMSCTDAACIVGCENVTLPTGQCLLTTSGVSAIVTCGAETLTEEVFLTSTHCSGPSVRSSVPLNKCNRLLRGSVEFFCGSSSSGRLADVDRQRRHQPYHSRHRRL
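Detergent-containing run (0.01% Triton X-100) in acetate buffer pH 5.5 with 5 mM DTT: enzyme at 1.5 nM final, 15 min compound preincubation at room temperature, then 2 uM Z-FR-AMC substrate. Activity taken as 60 s fluorescence increase at 360/450 nm.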
NS1 inh – qHTS Assay for Inhibitors of Influenza NS1 Protein Function | actives 0.4% (n = 270,000) | S. cerevisiae slowed by influenza A NS1, growth recovery by OD600 | Potency, µM (highest dose often 46.1 µM), for inactives: at the highest dose activity, positive = more growth; active means well fitted rising curve with a large enough effect; inconclusive means small, poorly fitted or top-dose-only effect; inactive means no such curve, though single readings can be large or run the other way; note: nearly all actives have a fitted effect of over 50% in size
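S. cerevisiae expressing influenza A NS1, grown in glucose, washed, then diluted 1:100 into pH 6.0 -URA galactose medium with 23 nl compound. Growth recovery read as OD600; NS1-free strain serves as control.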
RE007 growth inh – qHTS Assay for Inhibitors of the HIV-1 protein Vpr | S. pombe RE007 Vpr strain, BacTiter-Glo ATP luminescence, 24 h; control for the full effect not named in the record | Potency, µM (series often up to 92.2 µM), for inactives: at the highest dose activity change, negative = less growth | actives 0.21% (n = 360,000); active = well fitted falling curve with a large enough effect; inconclusive = small, poorly fitted or top-dose-only effect; inactive = no such curve, though single readings can be large or run the other way;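 note: % is set by controls: 0 for no effect and ±100 for the full control effect; nearly all actives have a fitted effect of over 50% in size; the assay follows cell death caused by Vpr and the record does not say whether a fall means rescue or toxicity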
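Fission yeast strain RE007, carrying one chromosomally integrated HIV-1 vpr copy, was seeded at OD 0.01 in PMG+AL medium with 23 nL pinned compound. After 24 h at 30 °C and 99% humidity, viability was read by BacTiter-Glo luminescence.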
SARS PLP yeast – qHTS of Yeast-based Assay for SARS-CoV PLP; AID 485353, 2010; actives 0.19% (n = 330,000); Potency, µM (top dose mostly 32.9 µM), inactives show top-dose activity, positive = growth rescue; S. cerevisiae expressing SARS-CoV PLpro, growth rescue; control for the full effect not named in the record; active means well fitted rising curve with a large enough effect; inconclusive means small, poorly fitted or top-dose-only effect; inactive means no such curve, though single readings can be large or run the other way; note: 0% is about no effect; nearly all actives have a fitted effect of over 55% in size; growth read by luminescence after 48 h
Lassa entry inh – qHTS for Inhibitors of binding or entry into cells for Lassa Virus. Lassa virus pseudotype entry inhibition, cell reporter; control for the full effect not named in the record. Potency, µM (doses to about 37.9 µM), inactives show at the highest dose activity change, negative = inhibition, actives largely listed as inhibitors. actives 1.2% (n = 300,000); active means well fitted inhibition curve with a large enough effect; inconclusive means small, poorly fitted or top-dose-only effect, or effect the other way; inactive means flat fitted curve, though single readings scatter; tested in HEK293 cells; note: % is set by controls: 0 for no effect and ±100 for the full control effect; nearly all actives have a fitted effect of over 50% in size; luciferase read-out
MARV entry inh – qHTS for inhibitors of binding or entry into cells for Marburg Virus; Potency, µM (titrated, usually from 37.8 µM), without a hit: top-dose activity change, negative = inhibition, most hits filed as inhibitors; Marburg virus pseudotyped entry inhibition, cell reporter; control for the full effect not named in the record; about a third of the inactives were read at about 46 µM; actives 1.8% (n = 300,000); active = well fitted inhibition curve with a large enough effect; inconclusive = small, poorly fitted or top-dose-only effect, or effect the other way; inactive = flat fitted curve, though single readings scatter; tested in HEK293 cells; about a fifth of its hits are not listed in these tables; note: % is set by controls: 0 for no effect and ±100 for the full control effect; luciferase read-out
Cruzain noTriton – qHTS Assay for Promiscuous and Specific Inhibitors of Cruzain (without detergent) | actives 2.3% (n = 200,000) | purified cruzain, Z-FR-AMC fluorescence, no detergent | Potency, µM, for inactives: max response, negative = inhibition, usual class: inhibitors | AID 1476, 2009 | Cruzipain (Trypanosoma cruzi), P25779;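 note: plate controls were enzyme without inhibitor for no effect and buffer without enzyme for full effect; nearly all actives have a fitted effect of over 40% in size; top concentration of the series not given in the record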
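Detergent-free condition (0.00005% Triton X-100) in acetate buffer pH 5.5 with DTT. 1.5 nM enzyme and compound were pre-mixed 15 min, then 2 uM Z-FR-AMC substrate added; reaction progress from fluorescence change between first and third reads (60 s).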
* hit, by the source's call; ? = inconclusive; · = not tested or not shown; & = joins results of further samples; [ ] = another dose, or the depositor's remark. Unless noted, calls come from the whole dose curve; as a rule, active = well fitted curve in the direction sought with a large enough effect; inconclusive = small, poorly fitted or top-dose-only effect, or another doubt; inactive = no such curve, though single readings can be large; an effect the other way counts as inactive or inconclusive. Potency is the fitted concentration of half-maximal effect. Rows are unselected, and some 4.7% of all compounds hit somewhere here.

SMILES	2A StopGo	Cruzain inh Det	NS1 inh	RE007 growth inh	SARS PLP yeast	Lassa entry inh	MARV entry inh	Cruzain noTriton
CCc1nnc(SCC(=O)Nc2ccc(C(C)=O)cc2)nc1CC	-4%	-2.2%	-9%	10%	-7%	10%	15%	-11%
CCOC(=O)c1c(S(=O)(=O)NCC(=O)N2CCN(c3ccc(F)cc3)CC2)c(C)n(C)c1C	-3%	·	-10%	3%	2%	-6%[46.1 µM]	-1%[46.1 µM]	·
Cc1sc(NC(=O)C2CCCCC2C(=O)O)c(C(N)=O)c1-c1ccccc1 (stereo not given)	6%	3.2%	26%	11%	4%	-9%	?	-2%
COCCNC(=S)N(Cc1cccnc1)Cc1ccc(OC)c(OC)c1	-7%	-1.3%	4%	·	3%	-7%	?	2%
Cc1c(C(=O)NC2=NCCS2)oc2ccccc12	-25%	-9.1%	-97%	-8%	-18%	?	?	-27%
Cc1ccc(Cn2c(Sc3nccc(C)n3)nc3c2c(=O)[nH]c(=O)n3C)cc1	5%	1.4%	2%	4%	4%	-5%	3%&3%	8%
Cc1cc(C)cc(NC(=O)C2CCCN2C(=O)Oc2ccccc2)c1 (stereo not given)	·	2.3%	-4%	-2%	6%	3%	8%	6%
N#Cc1cc2cc3ccccc3nc2n2c(=O)c3ccccc3nc12	-13%	·	·	-4%	-1%	-1%	-17%[46.1 µM]	·
O=C(Nc1ccccc1)N1CCN(C2c3ccccc3-c3ccccc32)CC1	-14%	·	5%	6%	-1%	-8%	?	·
O=C(CSc1ncccc1-c1nc2ccccc2[nH]1)N1CCN(c2ccccc2F)CC1	-3%	0.6%	?	-6%	-4%	12%	-18%	-21%
COc1ccc(NS(=O)(=O)c2cccc(C(=O)NC3CCC(O)CC3)c2)cc1 (stereo not given)	0%	·	3%	-9%	-2%	-6%	-12%	·
Cc1[nH]n(-c2ccccc2)c(=O)c1/C=N/Nc1nncc(-c2ccccc2)n1	·	-15%	-8%	-24%	8%	4.1µM*	4.1µM*	?
CCC(C)NC(=O)c1c(C)cc(=O)oc1C (stereo not given)	6%	-1.0%	?	9%	3%	7%	0%	-18%
O=C(CN1CCc2ccccc21)NCc1ccc2c(c1)OCO2	36%[activator]	-1.8%	-7%	-17%	-9%	21%	9%	-4%
COc1ccc(Nc2c[nH]c(=O)[nH]c2=O)cc1	-16%	·	·	-6%	·	14%[46.1 µM]	2%	·
Cc1ccc(F)cc1NC(=O)CSCc1nc2sc(C)c(C)c2c(=O)[nH]1	?	·	·	9%	1%	-2%	15%	·
O=C(c1ccc(N2CCCC2)c([N+](=O)[O-])c1)N1CCc2ccccc2C1	19%	·	·	8%	4%	0%	-17%[46.1 µM]	·
CCn1nc(C(=O)OCC(=O)N2CCc3ccccc32)c2ccccc2c1=O	2%	-0.5%	-8%	18%	-11%	0%	1%	?
CC(C)C(NC(=O)c1cccc(S(=O)(=O)N2CCOCC2)c1)C(=O)NCCc1ccccn1 (stereo not given)	9%	0.7%	-3%	-1%	3%	0%	7%[46.1 µM]	-5%
Cc1cc(Cl)ccc1OCC(=O)Nn1c(C)ccc1C	-25%	-2.9%	-6%	-15%	0%	1%	-3%	2.5µM*
C(#CCN1CCOCC1)COCc1ccccc1	4%	0.8%	0%	-11%	-2%	10%	?	-5%
Cc1cccc(-n2c(C)cc(/C=N/n3cnnc3)c2C)c1	?	-1.8%	-2%	11%	-7%	-16%	6%	0%
COc1ccccc1CNC(=O)C1CCN(S(=O)(=O)c2c(C)noc2C)CC1	-2%	2.5%	-2%	3%	-1%	18%	-19%	0%
CCn1c(CN2CCN(c3ccc(OC)cc3)CC2)nc2cc(S(=O)(=O)N(C)C)ccc21	-1%	·	-1%	8%	0%	-2%[46.1 µM]	-1%[46.1 µM]	·
COc1cccc(CNc2ncc(-c3ccc(Br)cc3)n2C)c1	-21%	-0.4%	·	·	·	-9%[46.1 µM]	·	-13%

(more compounds)
SMILES	2A StopGo	Cruzain inh Det	NS1 inh	RE007 growth inh	SARS PLP yeast	Lassa entry inh	MARV entry inh	Cruzain noTriton
CCCC(=O)NCc1nc2cccnc2n1Cc1ccc(F)cc1	-9%	-0.6%	·	·	·	-22%[46.1 µM]	·	1%
NS(=O)(=O)c1ccc(NC(=O)CSc2nnc(-c3ccc(O)cc3)o2)cc1	24%	·	-10%	10%	2%	3%[46.1 µM]	?	·
COc1cc(C2CC(C(F)(F)F)n3ncc(C(=O)O)c3N2)cc(OC)c1OC (stereo not given)	-3%	3.0%	7%	1%[3.69 µM]	-1%	8%	-7%	8%
CCCc1cc(CN2CCOCC2)c(O)c(CN2CCOCC2)c1O	-8%	·	·	3%	·	7%	29%	·
Cn1c2ccccc2c2cnn(CC(=O)N3CCC4(CC3)OCCO4)c(=O)c21	·	-7.8%	11%	·	?	·	-1%	-12%
O=C(Nc1cccc2cccnc12)c1ccc(Cl)cc1	21%	·	-16%	-12%	-2%	19%[46.1 µM]	2%[46.1 µM]	·
Cc1cc(Br)c(OCc2ccc(C(=O)N/N=C3\CC4CC=CC34)cc2)c(Br)c1 (stereo not given)	-15%	-6.5%	?	47%	0%	?	?	20µM*
C/C(=N\OC(=O)Nc1ccccc1)c1ccc(C)cc1	30%[activator]	·	·	?	·	-5%[46.1 µM]	?	·
CCOc1ccc(CNC(=O)c2cccc(NC(=O)N3CCSc4ncccc43)c2)cc1	-12%	-21%	·	·	·	-4%[46.1 µM]	·	-2%
CC(OC(=O)c1ccccc1N1C(=O)C2C3CCC(C3)C2C1=O)C(=O)c1ccccc1 (stereo not given)	-27%	4.4%	0%	5%	15%	?	?	17%
CCOC(=O)/C(=C\c1ccccc1)NC(=O)c1ccccc1	0%	·	3%	9%	0%	·	·	·
COc1ccc(OC)c(NC(=O)CSc2nnc(CCCO)n2-c2ccccc2)c1	0%	2.2%	-7%	5%	-1%	-6%	-7%	17%
CCOCCCn1c(=N)c(C(=O)NC2CCCC2)cc2c(=O)n3cc(C)ccc3nc21	-5%	-3.0%	·	·	·	6%[46.1 µM]	-27%[46.1 µM]	12%
O=[N+]([O-])c1ccc(Nc2nccc(Cl)n2)cc1	25%	·	·	0%	·	6%	4%[46.1 µM]	·
Nn1cnc2c([nH]c3ccccc32)c1=O	-14%	-1.0%	14%	18%	-4%	2%	21%	-9%
CCOc1ccc(OC(=O)NC(c2ccccc2)C(Cl)(Cl)Cl)cc1 (stereo not given)	-15%	0.6%	-7%	21%	1%	-1%	-14%	-5%
CCOc1ccc(C2C(C(=O)c3ccc(C)o3)=C(O)C(=O)N2c2nc(C)c(C(=O)OC)s2)cc1 (stereo not given)	8%	·	16%	-13%	0%	·	·	·
CCCN1C(=S)SC(C)(C)C1/[N+]([O-])=C/c1cccnc1 (stereo not given)	6%	1.0%	28%	0%	2%	7%	11%	3%
CCN(CC)C(=O)c1ccc(NC(=O)c2ccc(-n3cncn3)c([N+](=O)[O-])c2)cc1	2%	·	·	0%	·	?	-1%	·
CCn1c(CNC(=O)c2ccco2)nnc1SCC(=O)Nc1cc(C)c(C)cc1Br	-13%	-3.2%	-6%	3%	10%	1%	?	-4%
Cc1ccc(CN2CCCC(CO)(Cc3ccccc3C)C2)s1 (stereo not given)	-16%	·	-3%	-13%	-1%	-30%[46.1 µM]	?	·
Cc1ccc(C)c(S(=O)(=O)Nc2ccc(C(=O)N3CCC3)cc2)c1	66%[activator]	·	·	3%	-1%	13%	-13%	·
Cc1nn(C)c(C)c1NC(=O)CSc1nc(-c2ccccc2Cl)nc2c1cnn2-c1ccccc1	-6%	4.7%	0%	12%	0%	-15%	8%	3%
CCC(=NCc1ccco1)c1c(O)n(-c2ccc(Cl)cc2)c(=O)[nH]c1=O	-25%	·	-2%	6%	0%	?	?	·
Cc1ccc(COC(=O)c2[nH]c3c(c2C)C(=O)CC(c2ccc(Cl)cc2)C3)cc1 (stereo not given)	?	-0.4%	·	·	·	16%[46.1 µM]	10%[46.1 µM]	13%

(listing goes on)
SMILES	2A StopGo	Cruzain inh Det	NS1 inh	RE007 growth inh	SARS PLP yeast	Lassa entry inh	MARV entry inh	Cruzain noTriton
O=C1[C@@H]2Cc3c([nH]c4ccccc34)CN2C(=O)CN1CCCCCO	-16%	·	-1%	-1%	-1%	·	·	·
CCOC(=O)C1=C(CS(=O)(=O)c2ccc(C(C)(C)C)cc2)NC(=O)NC1c1cccc(OC)c1 (stereo not given)	?	-13%	·	·	·	?	?	20%
CCN(CC)CCCOC(=O)C(OC)(c1ccccc1)c1ccccc1	·	2.0%	3%	-5%	10%	-14%	?	8%
O=C(NNS(=O)(=O)c1ccc(C(F)(F)F)cc1)c1cnn(-c2ccccc2)c1C(F)(F)F	0%	·	8%	7%	0%	·	·	·
CC(=O)N1CCN(c2ccc(S(=O)(=O)N3CCCCC3)cn2)CC1	?	0.8%	-1%	0%	-23%	14%	?	1%
COc1cc(/C=C/C(=O)NNc2c(F)c(F)cc(F)c2F)ccc1OC(F)F	-10%	0.3%	-4%	-9%	2%	-21%	-21%	-2%
O=C(COC(=O)c1ccccc1SCC(=O)N1CCCC1)Nc1ccccc1OC(F)F	-20%	·	·	7%	5%	-4%	?	·
Cc1cccc(C(=O)n2nc(-c3cccnc3)nc2NCc2ccc(F)cc2)c1	5%	-5.6%	·	·	·	12%[46.1 µM]	5%[46.1 µM]	0%
Cc1ccccc1Cn1c(COc2ccc(Cl)cc2)nc2ccccc21	-21%	1.9%	·	·	·	-18%[46.1 µM]	-13%[46.1 µM]	8%
CCCCn1c(N)c(N(CCC(C)C)C(=O)c2cc(S(=O)(=O)N3CCOCC3)ccc2F)c(=O)[nH]c1=O	-16%	·	·	7%	1%	-9%	-4%	·
